# Screening data (PubChem)
# Mtb growth = Mycobacterium tuberculosis H37Rv growth inhibition, cell based, confirmatory dose response (AID 1949); M. tuberculosis H37Rv growth inhibition; 100,000 compounds, 1.6% hits; most inactive calls were filed without a number and no value below 0 was filed; inhibition, % at 10 µg/mL, or IC50 in µg/mL where a hit was titrated;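 active = confirmed in a dose series; inconclusive = about 50% or more but not retested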;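 also: bacteria grown 7 days with compound before Alamar blue readout; 0% = untreated bacteria and 100% = reference antibiotic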
# * = called active by the depositor; i = inactive; ? = inconclusive. A portion of the library (hit frequency here may not be typical).
smiles	Mtb growth
CCn1c(C)c(C(C)=O)c(N2CCN(c3ccccn3)CC2)nc1=S	i
COC(=O)CNC(=O)c1cc(-c2ccccc2)nc2ccccc12	i
Cc1cc(S(=O)(=O)NC2CCCCC2)ccc1Cl	i
O=C(c1cccnc1)N1CCN(Cc2ccccc2Cl)CC1	i
COc1ccc(-c2csc(Nc3ccc(C)cn3)n2)cc1	7.2µg/mL*
CCCCNC(=O)C1CCN(C(=O)c2cccc(Cl)c2)CC1	i
CCc1cccc(C)c1N(C(=O)Cn1c(C(C)O)nc2ccccc21)C(C)COC (stereo not given)	i
O=C(Nc1nnc(CSCCOc2ccccc2)s1)c1cccs1	i
CCOC(=O)c1cc(-c2ccccc2)sc1NC(=S)N(C)Cc1cn(CC)nc1C	i
COc1ccc(NC(=O)COc2c(C)cc(C)cc2Br)cc1Cl	i
CC(=O)N1CCN2C(=O)C1CCCC(=O)c1cc(C)ccc12 (stereo not given)	i
CC1(C)CC(CC(N)=O)(c2ccccc2)CCO1 (stereo not given)	i
CCCC(=O)n1nc(-c2ccc(OC)cc2)nc1N	i
CC(=O)C(C)n1cnc2sc3c(c2c1=O)CCCC3 (stereo not given)	0%
CCCS(=O)(=O)N1CCN(Cc2ccsc2)CC1	i

# As a short view, part of the list above:
smiles	Mtb growth
CC(=O)C(C)n1cnc2sc3c(c2c1=O)CCCC3 (stereo not given)	0%
CCCS(=O)(=O)N1CCN(Cc2ccsc2)CC1	i

# Later entries.
smiles	Mtb growth
O=C(NNC(=S)NC1CCCCC1)c1ccc(Cl)s1	17%
CCOc1ccccc1C(=O)Nc1nc(-c2cccc3ccccc23)cs1	i
Cc1ccc(OCCCCN2CCCC(C)C2)c(Cl)c1 (stereo not given)	i
Cc1nc2cc(S(=O)(=O)N(C)C)ccc2n1-c1ccccc1	i
COc1ccc(CCNC(=O)C(OC)c2ccccc2)cc1 (stereo not given)	i
Cc1ccc(S(=O)(=O)N(CC(=O)N2CCN(C)CC2)c2cccc(C)c2)cc1	i
Cc1cc(C)c(S(=O)(=O)N(C)CC(=O)N2CCN(Cc3ccc4c(c3)OCO4)CC2)c(C)c1	i
COc1ccc(CCNCc2cccc(Br)c2)cc1	7%
CCC(C)(C)c1ccc(OCCN2CCNCC2)c(Cl)c1	i
O=C(Nc1ccc(CN2CCOCC2)cc1)c1cccc(-c2cc3ccccc3oc2=O)c1	i
O=C(COc1ccc(S(=O)(=O)NCCc2ccccc2)cc1)Nc1ccc(C(F)(F)F)cc1	i
O=C(Nc1ccccn1)c1cc2c(s1)CCCC2	4%
c1cc2c(cc1Oc1nc(N3CCOCC3)nc(N3CCOCC3)n1)OCO2	i
O=[N+]([O-])c1ccc(-c2noc(-c3ccccc3F)n2)cc1	i
Cc1onc(-c2ccccc2)c1C(=O)Nc1c(C)n(C)n(-c2ccccc2)c1=O	i
Cc1cccc(CNC(=O)C(=O)NCCCOC(C)C)c1	i
CC1CCCN(S(=O)(=O)c2ccc(-c3ccc(S(=O)(=O)N4CCCC(C)C4)cc3)cc2)C1 (stereo not given)	i
Fc1ccc(COc2ccc(CNc3ccccc3)cc2)cc1	i
O=C(Oc1c(Cl)cc(Cl)c2cccnc12)c1ccc([N+](=O)[O-])cc1	0.88µg/mL*
O=C(c1ccccc1F)N1CCN(S(=O)(=O)c2ccccc2)CC1	i
O=C(COc1ccc(C(=O)Nc2cccc(C(F)(F)F)c2)cc1)NCc1ccccc1	i
Cc1ccc(N2C(=O)c3cccc4c(N5CCCC5)ccc(c34)C2=O)c2cccnc12	i
Cc1c(OC(=O)C2CC2)ccc2c3c(c(=O)oc12)CCCC3	31%
N/C(=N\OC(=O)c1cc(Br)ccc1Cl)c1ccc([N+](=O)[O-])cc1	17%
O=C(CC(c1ccccc1)c1cc(Cl)ccc1O)NC1CCCCC1 (stereo not given)	i
O=C(Nc1ccc(Cl)c(Cl)c1)c1ccccc1	2%
c1ccc2c(N3CCN(c4ncnc5ccccc45)CC3)ncnc2c1	i
COc1ccc(-c2csc(NC(=S)NC(=O)c3cc4ccccc4o3)n2)cc1OC	i
O=C(CN1CCCCCC1)Nc1cccc(Br)c1	i
CCC(=O)N1CCN(c2ccccc2NC(=O)Cc2ccc(Cl)cc2)CC1	i
Cc1c(Cl)cccc1NC1=NCC(C)S1 (stereo not given)	?
CC(C)(C)C(=O)NC(=S)Nc1ccc(C(=O)O)cc1	i
CCS(=O)(=O)NCCc1ccc(OC)c(OC)c1	5%
CC(Oc1ccc(F)cc1)C(=O)NCCc1ccccc1 (stereo not given)	i
CCCn1c(CNC(C)=O)nc2ccccc21	i
O=C(Nc1ccc2oc(=O)ccc2c1)c1ccc(-c2cccc(Cl)c2Cl)o1	i
NC(=O)CSc1nnc(SCc2ccc(Cl)cc2)s1	5.2µg/mL*
OC(COc1ccccc1)CN1CCN(Cc2ccccc2)CC1 (stereo not given)	i
Cc1nc2ncccn2c1-c1csc(NCc2ccco2)n1	2%
Cc1cccc(C(C)(C)C)c1OCCOCCN1CCCC1	i
Cc1ccc(NC(=S)NCc2ccc(F)cc2)c(C)c1	i
CC12CCC(C(C)(C)O)C(CC(=O)O1)C2 (stereo not given)	i
O=C(Nc1ccc(F)c(Cl)c1)c1ccc(-c2ccccc2[N+](=O)[O-])o1	1%
CCOC(=O)c1c(NC(=O)C(Cl)Cl)sc(C(N)=O)c1C	16%
O=C(COc1ccc(-c2ccccc2)cc1)NNC(=O)c1ccco1	31%
Cc1nc(-c2ccc(NC(=O)c3ccc(Cl)cc3)cc2)cs1	i
N#Cc1c(NC(=O)c2cnn3cccnc23)sc2c1CCC2	i
CCOc1ccc(NS(=O)(=O)c2ccc3[nH]c(=O)[nH]c3c2)cc1	i
Cc1nc2cc(-c3ccccc3)sc2c(=O)n1N	i
COC(=O)c1cc(C)sc1NC(=O)c1ccco1	i
O=C(COc1ccccc1Cl)Nc1ccc(CN2CCOCC2)cc1	i
COc1cc(C(=O)NC(=S)Nc2ccc3c4c(cccc24)CC3)cc(OC)c1OC	i
Cc1ccc(NC(=O)CNS(=O)(=O)c2ccc(Br)cc2)cc1	i
Cc1ccc(OC(=O)CCC(=O)NC(C)(C)C)cc1	i
COc1ccc(C(=O)Nc2c(Cl)cc(Cl)cc2C(=O)NCCc2ccccc2)cc1	i
CCOc1cccc(OCCCNCCO)c1	i
Cc1ccccc1OCCN1CCNC1=S	0%
O=C(CSc1nnc(Cc2ccccc2)o1)Nc1ccc(Cl)cn1	4%
CCOC(=O)N1CCC(Nc2ncnc3c2cnn3-c2ccccc2)CC1	9%
CC1CCc2c(sc3ncnc(SCC(=O)N4CCCCC4)c23)C1 (stereo not given)	2%

# Carrying on.
smiles	Mtb growth
O=[N+]([O-])c1ccc(-c2nnc(SCc3cccc(Cl)c3)n2-c2ccccc2)cc1	2%
CC(C)CNC(=O)CSCc1ccc(Cl)cc1	i
COc1cc(Br)cc2cc(C(=O)Nc3ccccc3O)c(=O)oc12	i
O=C(CSc1nc(-c2ccccc2)cs1)NCc1ccccc1	i
CCCCC(=O)NC(=S)Nc1cc(C(=O)O)ccc1OC	1%
CCOC(=O)c1ccc(CNC(=O)CCC(=O)O)cc1	i
O=C1CC(Nc2ccc(N3CCOCC3)cc2)C(=O)N1c1ccc(OC(F)F)cc1 (stereo not given)	i
CN1CCN(CCOCCOc2cccc(Br)c2)CC1	i
COc1cc(C(=O)Nc2ncc(Cc3ccc(Cl)cc3Cl)s2)cc(OC)c1OC	i
O=C(COc1cc(Cl)c(Cl)cc1Cl)Nc1cccc(Br)c1	i
O=C(CN(c1ccccc1)S(=O)(=O)c1ccc(Cl)cc1)NCCSc1ccccc1	i
CC(=O)n1cc(Nc2ccccc2C(=O)O)c2ccccc21	i
CCC(C)c1ccccc1OCC(=O)Nc1ccc(S(=O)(=O)N2CCOCC2)cc1 (stereo not given)	i
CCC(CC)NC(=O)C(=O)c1c(C)[nH]c2ccccc12	i
COC(=O)c1cnc2c(C(F)(F)F)cccc2c1OC	i
COc1cccc(NC(=O)c2cc(NC(=O)c3ccccc3)cc(NC(=O)c3ccccc3)c2)c1	i
O=C(CC12CC3CC(CC(C3)C1)C2)N1CCCC1	i
Cc1cc(C)cc(NC(=S)N2CCc3ccccc3C2)c1	i
O=[N+]([O-])c1ccc(/C=C/c2nn3c(Cc4ccccc4)nnc3s2)cc1	i
Cc1c(Cl)cccc1NC(=S)NCCSc1ccc(Cl)cc1	24%
Cc1cc(NS(=O)(=O)c2ccc(NC(=O)c3cc4ccccc4o3)cc2)nc(C)n1	i
O=C(CCC(=O)OCc1ccc(Cl)cc1)Nc1ccc([N+](=O)[O-])cc1	i
O=C(Nc1ccc(C(=O)NC2CCCC2)cc1)c1ccccc1	i
COC(=O)C(CCSC)NC(=O)c1cc2c(n(-c3ccc(C)cc3)c1=O)CCCC2=O (stereo not given)	i
C#CCN1C(=O)C(O)(CC(=O)c2ccncc2)c2cc(Br)ccc21 (stereo not given)	i
COc1cc(CNc2ccc(C(=O)O)cc2)cc(Cl)c1OC	i
COc1ccc(N2CCN(C(=O)CN(C)S(=O)(=O)c3c(C)cc(C)cc3C)CC2)cc1	2%
CCCC(=O)Nc1cccc(NC(=O)c2cc(-n3cnnc3)ccc2Cl)c1	i
Cc1ccc(C(=O)N2CCN(Cc3ccccc3)CC2)cc1Cl	6%
Cc1cc2nc(-c3ccc(Br)cc3)cc(C(F)(F)F)n2n1	5%
Nn1c(SCc2ccc(C(=O)O)cc2)nnc1-c1ccccc1	i
CCOc1ccc(NC(=O)c2c(NC(=O)CNCC3CCCO3)sc3c2CCC3)cc1 (stereo not given)	14%
Cc1ccc(CC2CC(=O)N(c3ccc(Cl)cn3)C2=O)cc1 (stereo not given)	1%
O=S(=O)(NC(=NCc1ccccc1)c1ccccc1)c1ccc(Br)cc1	3%
COc1ccc(NC(=O)COc2ccc(Cl)c(C)c2)c(OC)c1	i
Cc1ccc(S(=O)(=O)N(C)CC(=O)Nc2ccc(Br)cc2C)cc1	i
Cc1ccc(-n2c(SCC(=O)Nc3ccc(C)c(Cl)c3)nc3ccccc3c2=O)cc1	5%
CN1CCN(c2ccc(NC(=O)COc3ccc(C4CCCCC4)cc3)cc2)CC1	37%
CC(C)(C)c1ccc(-c2nc3cc([N+](=O)[O-])ccc3o2)cc1	i
O=C(O)Cn1c2ccc(Br)cc2c2nc3ccccc3nc21	i
COc1ccccc1NC(=O)c1ccc(-c2cccc(Cl)c2Cl)o1	3%
CCC(C)SCc1nc2ccccc2[nH]1 (stereo not given)	1%
O=C(NCC1CCCO1)c1cc(-c2cccs2)nc2ccccc12 (stereo not given)	1%
CC(C)OCCCNC(=O)C1CCCO1 (stereo not given)	i
O=C(CCc1ccccc1)NCCC1=CCCCC1	i
COc1ccc(NC(=O)Nc2cc(Cl)c(Cl)cc2Cl)cc1OC	i
CCSc1sc(CC)cc1C1C(C#N)=C(N)N(c2ccccc2F)C2=C1C(=O)CCC2 (stereo not given)	i
CCc1cccc(C)c1NC(=O)CN(c1ccc([N+](=O)[O-])cc1)S(=O)(=O)c1ccccc1	i
CCOc1ccc(NC(=O)c2cnn(-c3ccccc3)c2NC(=O)c2ccco2)cc1	i
Cc1ccc(NC(=O)CCC(=O)OCc2ccc(Br)cc2)c([N+](=O)[O-])c1	i
O=C(CN(c1ccccc1F)S(=O)(=O)c1ccccc1)N1CCc2ccccc2C1	i
CN(C)S(=O)(=O)c1ccc(NC(=O)c2cccc(Br)c2)cc1	i
CCCCNC(=O)c1cc(-c2ccc3c(c2)OCO3)nc2ccccc12	i
CC(=O)Nc1ccc(OCC(O)CN2CCC(C)CC2)cc1 (stereo not given)	i
O=C(COc1cc(Cl)c(Cl)cc1Cl)Nc1ccccc1C(=O)N1CCCC1	i
CNC(=S)NNC(=O)CSCc1cccc(C)c1	i
CCCCNCCOc1ccc2ccccc2c1Br	7.6µg/mL*
COc1cccc(S(=O)(=O)Nc2ccc(C(=O)Nc3cccc(C(F)(F)F)c3)cc2)c1	i
Cc1cc(Br)ccc1OCC(=O)N1CCOCC1	i
COc1ccc(CNC(=O)c2cc(Br)ccc2Cl)cc1	i

# Next section:
smiles	Mtb growth
CCCCc1cc(=O)oc2cc(OCC=C(C)C)ccc12	10%
CC(=O)Nc1ccc(S(=O)(=O)Nc2nc3ccc(Br)cc3s2)cc1	i
CS(=O)(=O)N(CC(=O)NC1CC2CCC1C2)c1cccc(C(F)(F)F)c1 (stereo not given)	5%
Cc1cc(C)c(C#N)c(SCC(=O)Nc2ccc(S(=O)(=O)Nc3nccs3)cc2)n1	i
COc1ccc(OC)c(/C=C/c2c([N+](=O)[O-])c(=O)n(C)c(=O)n2C)c1	i
COc1cc(-c2nc(-c3ccccc3Cl)no2)cc(OC)c1OC	i
Cc1cc(C)c(NC(=O)CCN2C(=O)c3ccccc3C2=O)c(Cl)c1	i
COc1cccc(NC(=O)C(=O)NCc2ccccc2Cl)c1	i
O=C1CC(N(C(=O)c2ccncc2)c2cccc(Cl)c2)C(=O)N1c1cccc(Cl)c1 (stereo not given)	i
Cc1ccc(C(=O)Nc2ccc(NC(=O)c3ccco3)cc2)c(C)c1	i

# Of the compounds above, these have a cyano group.
smiles	Mtb growth
N#Cc1c(NC(=O)c2cnn3cccnc23)sc2c1CCC2	i
CCSc1sc(CC)cc1C1C(C#N)=C(N)N(c2ccccc2F)C2=C1C(=O)CCC2 (stereo not given)	i
Cc1cc(C)c(C#N)c(SCC(=O)Nc2ccc(S(=O)(=O)Nc3nccs3)cc2)n1	i
